# AmpC inh no det: Promiscuous and Specific Inhibitors of AmpC Beta-Lactamase (assay without detergent); P00811; AmpC nitrocefin hydrolysis, absorbance 480 nm, no detergent; potencies from a single point are estimates; Potency, µM (top dose mostly 28.7 µM), inactives show at the highest dose activity change, negative = inhibition; hit rate 1.8% among 71,000; AID 585, 2007; active = falling curve, for most hits resting on a single point; inconclusive = weak or doubtful change; inactive = flat or rising curve; further: % of control where 0% means no effect; about half of the hits show no inhibition at the top dose; a quarter of the inactives give rising signals
# Target sequence (P00811 whole entry, looked up): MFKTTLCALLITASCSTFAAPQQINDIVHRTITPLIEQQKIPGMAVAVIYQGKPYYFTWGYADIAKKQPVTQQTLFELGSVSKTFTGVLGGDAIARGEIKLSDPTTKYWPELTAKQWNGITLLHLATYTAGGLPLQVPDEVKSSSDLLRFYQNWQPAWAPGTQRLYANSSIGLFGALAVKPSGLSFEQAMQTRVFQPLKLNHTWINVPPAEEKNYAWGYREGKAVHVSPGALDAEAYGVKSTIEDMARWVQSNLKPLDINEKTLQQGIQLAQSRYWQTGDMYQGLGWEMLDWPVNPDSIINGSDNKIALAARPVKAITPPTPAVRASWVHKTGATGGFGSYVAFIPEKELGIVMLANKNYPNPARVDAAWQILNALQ
#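 Enzyme, pH 7.0 phosphate. Compound titrations were pre-incubated with AmpC for 15 min at room temperature before nitrocefin (stock 800 uM) addition; product formation was recorded at 480 nm every 20 s for 4 min.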
# An asterisk follows results filed as active; u = inconclusive; & = joins results of further samples; [ ] = dose if it differs, or a comment. Potency means the concentration at half of the fitted maximal effect.
# The first four records, to show the layout:
SMILES,AmpC inh no det
COc1ccc2[nH]c(=O)c(CN(C(=O)c3ccncc3)C(C)C)cc2c1,4.0%
CCOC(=O)N1CCN(C(=O)COc2cc(=O)n(C)c3ccccc23)CC1,10.6%
CC(NC(=O)COc1ccc(Br)cc1)C(=O)O (centres undefined),-8.9%
Cc1ccc(S(=O)(=O)NCC(=O)OCC(=O)c2cccs2)cc1,-0.6%

# The whole of this part, previewed entries included:
SMILES,AmpC inh no det
COc1ccc2[nH]c(=O)c(CN(C(=O)c3ccncc3)C(C)C)cc2c1,4.0%
CCOC(=O)N1CCN(C(=O)COc2cc(=O)n(C)c3ccccc23)CC1,10.6%
CC(NC(=O)COc1ccc(Br)cc1)C(=O)O (centres undefined),-8.9%
Cc1ccc(S(=O)(=O)NCC(=O)OCC(=O)c2cccs2)cc1,-0.6%
COc1ccc(OC)c(NC(=O)CCC(=O)Nc2nnc(C(F)(F)F)s2)c1,-0.6%
N#Cc1ccsc1NC(=O)COC(=O)CCCSc1nc2ccccc2s1,-19.2%
CCc1ccccc1NC(=O)c1nnn(CC(=O)Nc2ccccc2C)c1N,-11.8%
Cc1cc2ccccc2n1CCNC(=O)c1ccccc1,18.0%
COc1ccccc1CC(=O)NC1CC(C)(C)NC(C)(C)C1,-3.8%
CCOC(=O)c1cnc(SCC(=O)N2CCN(c3ccccc3)CC2)nc1N,43.3%
CC(=O)C1=C(C)NC(SCC(=O)c2ccc(Cl)cc2)=C(C#N)C1c1ccco1 (centres undefined),-10.0%
CC(=O)OCC(COC(C)=O)OC(C)=O,5.5%
CC(C)OC(=O)Cn1c(=O)sc2ccccc21,-10.6%
CCN1CCN(CCCNC(=O)c2cn(CCOC)c(=O)c3c2c2ccccc2n3C)CC1,15.3%
CCN(CC)CCN1C(=O)C(O)=C(C(=O)c2cccs2)C1c1ccc(C)o1 (centres undefined),4.4%
COc1ccccc1OCCCn1c(C)c(C#N)c2ccccc21,36.2%
Cc1ccc(-n2ncc(C(=O)O)c2C2CCN(C(=O)OC(C)(C)C)CC2)cc1,9.3%
CC(=O)N[C@@H]1CCSC1=O,0.4%[12.8 µM]
CCCCC(CC)C(=O)Nc1ccccc1C#N (centres undefined),2.2%
CC(=O)c1cccc(NC(=O)N2CCc3ccccc3C2)c1,-0.1%
Cc1ccccc1NC(=O)c1cc(S(=O)(=O)N2CCOCC2)cs1,2.5%
CCCN(CCC)C1Cc2cc(OC)c(OC)cc2C1,-2.6%&6.5%
COc1ccc(CC(NC(C)=O)C(=O)NC2CCN(C(=O)Nc3ccc(C#N)cc3)CC2)cc1OC (centres undefined),14.1%
CNC(=O)O/N=C/C(C)(C)S(C)=O (centres undefined),-5.4%
COc1ccc(CNC(=O)c2cnc3n(c2=O)CCS3)cc1,-3.4%
COc1ccc(C(=O)N2c3cc4c(cc3C(C)=CC2(C)C)OCO4)cc1,29.1%
CC1CN(c2nc3ccccn3c(=O)c2/C=C(\C#N)S(=O)(=O)c2ccccc2)CC(C)O1 (centres undefined),79.5%
Cc1csc(NC(=O)CNC(=O)OCc2ccccc2)n1,-6.4%
O=C(COc1ncnc2sccc12)Nc1ccc2c(c1)OCCO2,-18.6%
CC(C)C(=O)NCCc1nc2ccccc2n1C,-0.5%
C=CCNC(=O)c1ccccc1Cl,-2.4%
O=C(CSc1n[nH]c(-c2ccncc2)n1)NCCc1ccccc1,-1.5%
CN1CCN(C(=O)c2cnn3c(C(F)F)cc(C4CC4)nc23)CC1,2.8%
Cc1ccc(C)c(OCCOCCN2CCOCC2)c1,15.5%
CCN1/C(=C/C(C)=O)Sc2ccc(OC)cc21,2.9%
N#Cc1ccc(COC(=O)Cn2nnc(-c3ccccc3)n2)cc1,-5.1%

# Pulled one by one from above, five records:
SMILES,AmpC inh no det
CC(NC(=O)COc1ccc(Br)cc1)C(=O)O (centres undefined),-8.9%
CCOC(=O)N1CCN(C(=O)COc2cc(=O)n(C)c3ccccc23)CC1,10.6%
COc1ccc(C(=O)N2c3cc4c(cc3C(C)=CC2(C)C)OCO4)cc1,29.1%
CC(=O)C1=C(C)NC(SCC(=O)c2ccc(Cl)cc2)=C(C#N)C1c1ccco1 (centres undefined),-10.0%
Cc1ccc(-n2ncc(C(=O)O)c2C2CCN(C(=O)OC(C)(C)C)CC2)cc1,9.3%

# Additional records
SMILES,AmpC inh no det
O=C(O)CCC(=O)Nc1ccc(N2CCCCC2)c(C(=O)O)c1,-12.2%
COc1ccccc1OCC(O)Cn1c(=N)n(CCN2CCCCC2)c2ccccc21 (centres undefined),29.3%
COc1ccc(-c2noc(CN(C)S(=O)(=O)c3ccc(C)cc3)n2)cc1,1.8%
COc1ccc(Cl)cc1C(=O)n1nc(C)cc1C,16.3%
CCc1nc2ccccc2c(=O)n1NC(=O)c1c(O)c2cccc3c2n(c1=O)CCC3,70.3%
COc1ccccc1S(=O)(=O)Cc1ccc(C(=O)N2CCOCC2)o1,3.16µM*[single pt active]
CC1CC(C)CN(S(=O)(=O)c2cccc3cccnc23)C1 (centres undefined),-0.4%
Cc1nn(C)c(C)c1S(=O)(=O)N1CCCC(C(=O)N2CCN(c3ccccc3)CC2)C1 (centres undefined),120.9%
CCN(CC)CCN1C(=O)c2cccc3cc(N)cc(c23)C1=O,-1.1%[5.75 µM]
CCOc1ccc2oc(-c3ccccc3)c(C(=O)O)c2c1,-7.1%
Cc1ccc(NC(=O)N(Cc2ccc3c(c2)OCO3)Cc2cc3cc4c(cc3[nH]c2=O)OCCO4)cc1,-0.5%
O=C(Nc1ccc2ccccc2c1)[C@H]1C[C@@H]1[C@H](NP(=O)(c1ccccc1)c1ccccc1)c1ccccc1,3.0%
CCOc1ccc(CNC(=O)C2CCC(=O)N2C2CCCC2)cc1OC (centres undefined),8.4%
COc1ccc(Cl)cc1-n1c(C)cc(C(=O)O)c1C,-4.8%
CCn1c(SCC(=O)N2CCc3ccccc32)nnc1-c1c[nH]c2ccccc12,-7.2%
NC(=O)C1CCN(C(=O)CN2C(=O)c3ccccc3S2(=O)=O)CC1,5.2%
CCCCNC(=O)c1ccc2nc(-c3ccco3)c(-c3ccco3)nc2c1,3.98µM*[single pt active]
c1cncc(CNC2CCCc3ccccc32)c1 (centres undefined),-13.2%
CS(=O)(=O)N1CCC[C@@]2(CCN(c3ncccn3)C2)C1,-2.2%
Cc1cc(=O)[nH]c2ccccc12,-6.5%
O=C(Nc1ccc(-c2cn3ccsc3n2)cc1)C1CC1,-1.1%
Cc1nnc(SCC(=O)Nn2cnnc2)s1,-0.7%
C[C@H](N)Cc1cnc[nH]1,22.4%&-2.4%
CCOc1cc2c3c(c1)C1(C(=O)N3C(C)(C)C=C2C)C(C#N)=C(N)Oc2cc(O)ccc21 (centres undefined),11.8%

# Of the compounds above, these have fluorine:
SMILES,AmpC inh no det
COc1ccc(OC)c(NC(=O)CCC(=O)Nc2nnc(C(F)(F)F)s2)c1,-0.6%
CN1CCN(C(=O)c2cnn3c(C(F)F)cc(C4CC4)nc23)CC1,2.8%

# The listing continues.
compound,AmpC inh no det
Cn1c(SCC(=O)N2CCCCCC2)nc2c([nH]c3ccccc32)c1=O,18.6%
O=c1c2cnn(-c3ccccc3)c2ncn1Cc1cccnc1,0.4%
Cc1cc(C)nc(SCC(=O)O)n1,-4.6%
CCOC(=O)c1oc2cccc(O)c2c1CN(Cc1ccccc1)C(C)=O,49.0%
c1ccc(Cn2nnc3c(N4CCOCC4)ncnc32)cc1,23.5%
CCOC(=O)C1CCCN(CCC(=O)Nc2cccc(F)c2)C1 (centres undefined),-3.3%
Cc1ccc(Cn2nnc3c(=O)[nH]c(C4CCN(S(=O)(=O)c5ccc(C)cc5)CC4)nc32)cc1,30.2%
COC(=O)C1=C(N)OC2=C(C(=O)CC(C)(C)C2)C1c1cccs1 (centres undefined),18.8%
Cc1ccc(-c2nc3ccccc3[nH]2)s1,-20.1%
Cc1[nH]c(C)c(C(=O)O)c1CNC1CCCCC1C (centres undefined),-10.9%
O=S(=O)(NC1CCCCCCC1)c1cccs1,-17.0%
CC1(C)Cc2c(sc3c2c(=N)n(Cc2ccco2)c(=O)n3Cc2ccccc2)CO1,77.4%
Cc1cccc(NS(=O)(=O)c2ccc(Oc3ccccc3)cc2)n1,1.3%
CC(O)/C=C/c1ccc2ccccc2n1 (centres undefined),7.7%
CN1CCN(C(=O)CN(Cc2ccc(Cl)cc2)S(C)(=O)=O)CC1,-2.0%
O=C(NCc1nc2ccccc2[nH]1)[C@H]1C[C@@H]1[C@H](NP(=O)(c1ccccc1)c1ccccc1)c1ccccc1,114.5%
CCC(CC)COC(=O)C(C#N)c1nc2ccccc2nc1N1CCN(CC)CC1 (centres undefined),156.8%
Cc1nn(-c2ccccc2)c2sc(C(=O)O)cc12,-9.5%
CSc1ccn(CCC(=O)O)c(=O)n1,1.7%
CN(c1ccc(C(=O)Nc2nccs2)cc1)S(=O)(=O)c1ccccc1,-4.1%
COc1cc2cc(c1Cl)N(C)C(=O)C[C@H](OC(=O)C(C)C)[C@]1(C)O[C@@H]1[C@@H](C)[C@H]1C[C@](O)(NC(=O)O1)[C@@H](OC)/C=C\C=C(\C)C2,119.1%[5.75 µM]
CCCCC(CC)CNC(=O)CCS(=O)(=O)c1cccc2nonc12 (centres undefined),4.1%
O=C(NC1CC1)C1CCN(c2ccc(S(=O)(=O)N3CCOCC3)cc2)CC1,3.5%
C=CCN1C[C@@H](C)N([C@H](c2ccc(C(=O)N(CC)CC)cc2)c2cccc(OC)c2)C[C@H]1C,22.5%
COCCn1c(=O)cnc2cnc(N3CCN(C)CC3)nc21,3.6%
CC(O)c1nc2ccccc2n1Cc1nnc(-c2ccc(Cl)cc2)o1 (centres undefined),67.2%
COC(C)(C)CCCC(C)C/C=C/C(C)=C/C(=O)OC(C)C (centres undefined),47.3%
CCOc1ccc2[nH]c(C)c(CN3CCOCC3)c(=O)c2c1,-3.5%
CC(c1ccccc1)n1c(NCCCn2ccnc2)nc2c1c(=O)[nH]c(=O)n2C (centres undefined),5.5%
COc1ccc(CCNc2c(C)c(C)nc3ncnn23)cc1,-2.2%
C=C(CC1(CNP(=O)(c2ccccc2)c2ccccc2)CC1)c1ccccc1,110.4%
O=C(Cc1ccccc1)N1CCN(Cc2ccccn2)CC1,-11.3%
CCn1c(C)csc1=NC(=O)c1ccccc1,-3.9%
O=C(NCc1ccco1)C(c1ccccc1)N(CC1CCCO1)C(=O)Cn1nnc2ccccc21 (centres undefined),-1.1%
CCCCS(=O)(=O)/C=C\C=C/S(=O)(=O)CCCC,-1.3%
CS(=O)(=O)Nc1ccccc1C(=O)NC1CC2CCC1C2 (centres undefined),-5.7%
O=S(=O)(Nc1ncccc1O)c1ccc(Cl)cc1,-0.2%
CCOC(=O)c1c(N)sc2c(NC(C)=O)cccc12,-11.9%
Cc1occc1C(=O)N1CCN(S(C)(=O)=O)CC1,-1.3%
CCSC1=C(C#N)C(c2ccccc2Cl)CC(=O)N1 (centres undefined),-4.4%
NCCSc1nc2ccccc2s1,-17.8%[5.75 µM]
O=S(=O)(Nc1nccs1)c1cc(Cl)ccc1Cl,10µM*[single pt active]
CC(=O)C1=C(C)NC(SCC(=O)c2cc(Cl)ccc2Cl)=C(C#N)C1c1ccco1 (centres undefined),u
CCc1nnc(NC(=O)C2CCCN2S(=O)(=O)c2ccccc2)s1 (centres undefined),18.9%
Cc1cc(C)n(C(=O)c2ccc(NC(=O)C3CC3)cc2)n1,16.0%
CCCS(=O)(=O)N1CCCC(C(=O)NCCN(CC)c2ccccc2)C1 (centres undefined),34.1%
O=C(CN1CCOc2ccccc21)NC1CCN(Cc2ccccc2)CC1,16.8%
O=C1CN(C(=O)CSc2nnc(-c3ccccc3)n2Cc2ccc3c(c2)OCO3)c2ccccc2N1,35.9%
Cc1cc(C(=O)Nc2c(C)n(C)n(-c3ccccc3)c2=O)cs1,5.3%
Cn1cc(S(=O)(=O)NCc2cccs2)c(=O)n(C)c1=O,114.3%
CC(C)(C)C(=O)/C(C#N)=c1\s/c(=C\c2ccncc2)c(=O)n1CCCN1CCOCC1,58.3%
CCn1c(N2CCN(S(=O)(=O)c3ccccc3C(F)(F)F)CC2)nc2ccccc21,40.7%
Nc1ccc(S(=O)(=O)Nc2nccs2)cc1,-15.3%
FC(F)Sc1ccc(Nc2ncnc3nc[nH]c23)cc1,-4.1%
O=C(c1c[nH]c(=O)n(-c2ccccc2)c1=O)N1CCc2ccccc21,-4.2%
O=C(Nc1cccc(C(F)(F)F)c1)N1CCC(c2nc(-c3ccc(F)cc3)no2)CC1,1.0%
CC(=O)NCCn1c(SCC(=O)NCCC2=CCCCC2)nc2ccccc2c1=O,61.4%
COCCn1c(C(=O)N2CCCC2)cc2c1C[C@H]1CN(C(=O)c3ccccc3)[C@@](Cc3ccc(F)cc3)(C(=O)OC)[C@@H]21,159.0%
O=C(Cc1ccc(Br)cc1)N1CCN(c2ccccc2)CC1,33.5%
O=S(=O)(NCCc1cn2ccccc2n1)c1ccc2c(c1)OCCO2,-14.1%

# Further structures follow:
compound,AmpC inh no det
O=C(Nc1ccccc1)c1ccc(S(=O)(=O)NCC2CCCO2)cc1 (centres undefined),-3.3%
COC(=O)c1cc2occc2n1CC(=O)Nc1ccc(C)cc1C,-2.9%
O=S(=O)(c1ccccc1)c1nc(-c2ccco2)oc1NCCCn1ccnc1,18.9%
CCCc1cc(C(=O)Nc2ccc(C(C)=O)cc2)no1,10.0%
CSc1oc(-c2ccccc2)nc1C(N)=O,-4.2%
O=C(NC12CC3CC(CC(C3)C1)C2)N1CCN(S(=O)(=O)c2ccc(Cl)cc2)CC1,21.2%

# Compound activity (PubChem)

# Some of the compounds tested; the hit share may differ from the screen's.
